# GLA inh pH 4.5 = inhibitors of human alpha-galactosidase A at pH 4.5; P06280; purified enzyme, 4-MU-alpha-Gal fluorescence, pH 4.5; activity change, negative = inhibition, % at 105 µM; 230,000 tested, under 10 active; AID 1467; inconclusive = small, poorly fitted or top-dose-only inhibition, or a rising curve; inactive = flat fitted curve, though single readings scatter; no compound was filed as active;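 also: 0% = full activity with enzyme and -100% = basal without enzyme; dose as in the result columns while the protocol names 77 µM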
# Target sequence (P06280 whole entry, looked up): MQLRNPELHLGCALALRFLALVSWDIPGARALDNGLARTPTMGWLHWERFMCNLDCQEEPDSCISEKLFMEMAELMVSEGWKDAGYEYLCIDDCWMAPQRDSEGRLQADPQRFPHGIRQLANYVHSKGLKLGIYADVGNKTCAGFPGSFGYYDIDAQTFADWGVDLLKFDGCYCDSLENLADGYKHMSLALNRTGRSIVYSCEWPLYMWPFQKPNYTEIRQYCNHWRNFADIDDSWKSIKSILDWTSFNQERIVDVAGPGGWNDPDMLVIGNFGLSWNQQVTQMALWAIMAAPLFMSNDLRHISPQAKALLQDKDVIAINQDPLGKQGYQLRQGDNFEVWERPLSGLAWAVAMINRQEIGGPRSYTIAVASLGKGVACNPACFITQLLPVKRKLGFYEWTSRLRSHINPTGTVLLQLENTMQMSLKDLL
# miR-21 reporter = raises the signal of a miR-21 reporter; Potency, µM (doses to about 38.3 µM), for inactives: at the top dose reporter change, positive = more light; AID 2288; HeLa miR-21 FLuc reporter, luciferase, 48 h; 340,000 tested, under 10 active; active = well fitted rising curve with a large enough effect; inconclusive = small, poorly fitted or top-dose-only effect; inactive = no such curve, though single readings can be large or run the other way;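 also: % of control where 0% means no effect; miR-21 action dims this reporter so a rising signal means less miR-21 action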
#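 Using DMEM plus 10% FBS, HeLa miR-21-FLuc cells are incubated with test compounds (final up to about 40uM) for 48 hours; firefly luciferase signal is then imaged following reagent-mediated lysis.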
# Rango complex inh = inhibitors of Rango-importin beta complex formation. AID 540263. Q14974. Rango CFP/YFP FRET sensor + importin beta, 45 min. Potency, µM (titrated, usually from 92.2 µM), for the others: at the highest dose inhibition of complex formation. actives 0.031% (n = 340,000); active = rising FRET ratio curve, often small or poorly fitted; inconclusive = mostly compound fluorescence or quenching in the first reads; inactive = flat curves in all reads;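 also: potency is read from the fitted curve at half-maximal effect; 0% = DMSO wells and 100% = buffer wells lacking importin beta; nearly all actives have a fitted effect of over 15% in size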
#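 Inhibition scored from the CFP 486 nm/YFP 530 nm FRET ratio 45 min after adding 0.125 microM importin beta to 50 nM Rango biosensor preincubated 5 min with compound (room temperature, PBS with DTT, Tween-20, BSA). No-importin wells as positive control.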
# Rango release inh = prevents RanGTP from dissociating the Rango-importin beta complex; O95149+P62826; Biochemical FRET Rango-importin beta, RanGTP-induced dissociation; Potency, µM (highest dose often 46.1 µM), for inactives: at the top dose activity change, negative = inhibition; actives 0.071% (n = 340,000); AID 540253; active means falling FRET ratio curve, often poorly fitted, with flat reads before Ran was added; inconclusive means other falling curves, or compound fluorescence or quenching; inactive means flat or rising ratio curve;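 also: potency is read from the fitted curve at half-maximal effect; % of control where 0% means no effect; nearly all actives have a fitted effect of over 45% in size; -100% = wells without RanGTP and RCC1; the record marks most hits as doubtful in a second field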
#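 Two FRET readings bracket the reaction: one 5 min after compound meets Rango–importin beta, another 45 min after RanGTP-RCC1 (0.6 uM Ran, 0.2 uM RCC1, 2 mM GTP) is added. Only the second defines inhibition.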
# * = called active by the depositor; ? = inconclusive; nt = not tested or not shown; & = joins results of further samples.
Compound,Rango release inh,Rango complex inh,miR-21 reporter,GLA inh pH 4.5
Cc1cccc(OP(=O)(Oc2ccccc2)OC(c2ccccc2)C(F)(F)F)c1 (configuration not stated),-18%,0.3%,2%,-3
Cc1sc2nc(COC(=O)Cc3ccccc3)[nH]c(=O)c2c1C,6%,-3.7%,-8%,-17
O=C1NC(=O)N(CCC2=CCCCC2)C(=O)/C1=C/c1ccc(O)cc1,-15%,2.3%,-3%,-7
CCOC(=O)C1=C(C)N(C)C2(C)CC1c1ccccc1O2 (configuration not stated),16%,?,-1%,0
COc1ccc(C2SCC(=O)Nc3c2c(=O)[nH]n3C2CCCCCC2)cc1 (configuration not stated),-8%,-5.4%,-6%,3
COc1ccc(Cl)cc1C(=O)C1CCCN(Cc2cnc(C)s2)C1 (configuration not stated),4%,0.5%,-23%,-1
CC(C)(C)n1c(O)c(C=Nc2ccc3c(c2)CCC3)c(=O)[nH]c1=O,16%,0.7%,-7%,-6
NC(=O)OCCCc1ccccc1,-1%,3.7%,nt,nt
O=c1c2ccccc2nc(-c2ccco2)n1-c1ccccn1,-6%,0.0%,2%,-7
Cc1cc(O)c(CN2CCN(c3ccccc3)CC2)cc1C,-1%,0.0%,-2%,-17
COc1ccc(OC)c(N=Cc2c(O)[nH]c(=O)[nH]c2=O)c1,-15%,?,-5%,nt
COc1cccc(-n2c(/C=C/c3ccccn3)nc3ccccc3c2=O)c1,1%,0.5%,1%,nt
O=c1c2ccccc2nc(/C=C/c2ccccn2)n1-c1ccccc1,-7%,5.2%,3%,nt
COC(=O)C1=C(N)Oc2cc(C)oc(=O)c2C12C(=O)Nc1ccccc12 (configuration not stated),-14%,4.9%,-2%,2
CN1C(=O)C[N+]([O-])=C(c2ccccc2)c2cc(Cl)ccc21,17%,-1.9%,nt,nt
CCOC(=O)CC1=C(C(=O)OCC)C2(C(=O)N1CC(=O)OC)C(C#N)=C(N)Oc1ccccc12 (configuration not stated),-13%,2.9%,0%,-4
O=C(NCc1ccccc1)c1cccn(Cc2ccccc2)c1=O,6%,1.0%,-13%,nt
CCC(=NCCCN1CCOCC1)c1c(O)n(Cc2ccccc2)c(=O)[nH]c1=O,2%,-3.6%,-6%,-14
O=C(Oc1ccc2cc(Br)ccc2c1)N1CCCCCC1,nt,nt,-70%,-7
CCN1C[C@]2(COC(=O)c3ccccc3N)CC[C@H](OC)C34[C@@H]5C[C@H]6[C@H](OC)[C@@H]5[C@](O)(C[C@@H]6OC)[C@@](O)([C@H]13)[C@@H](OC)[C@@H]42,4%,-1.8%,6%,nt
CCN1CCN(c2cn[nH]c(=O)c2Cl)CC1,-12%,3.2%,1%,2
COc1ccc(C(Nc2cccc([N+](=O)[O-])c2)P(=O)(OC(C)C)OC(C)C)cc1 (configuration not stated),-2%,-0.8%,14%,-7
Cc1nc2c(-c3ccc(F)cc3)c(C)nn2c(C)c1CCC(=O)N1CCC2(CC1)OCCO2,1%,3.2%,2%,-14
CC(=O)Nc1cc(C(=O)N2CCC3(CC2)OCCO3)ccc1Sc1ccc(C)cc1,29%,-6.1%,-4%,6
Cc1ccc(-c2c(C(=O)O)c(C(=O)O)c3n2CSC3)cc1,2%,?,0%,nt
Cc1nc2ccccc2c(=O)n1-c1ccc(C(=O)O)cc1,-12%,0.1%,-1%,1
CCCCCc1nc2ccccc2c(=O)n1-c1ccc(Cl)cc1[N+](=O)[O-],0%,3.6%,5%,-11
O=C(c1cccc2ccccc12)C1CCCN(Cc2ccon2)C1 (configuration not stated),-14%,-1.1%,4%,-1
Cc1c2cnn(CC(=O)N3CCC4(CC3)OCCO4)c(=O)c2c(C)n1Cc1ccccc1,8%,-0.2%,-3%,-2
Cc1ccsc1CNCCc1ccc(F)cc1,5%,0.3%,-7%,nt
O=C(NCNC(=O)NC1C(=O)NC(=O)N1CO)NC1C(=O)NC(=O)N1CO (configuration not stated),2%,-0.1%,nt,nt
Cc1cccc(N=Cc2c(O)n(C)c(=O)n(C)c2=O)c1,0%,3.2%,-1%,nt
Nc1nonc1OCCCCOc1nonc1N,-17%,0.1%,2%,0
CC(C)N(CC#CCC1(O)c2ccccc2-c2ccccc21)C(C)C,-10%,-0.8%,-2%,0
O=C(Nc1ccc(F)cc1F)c1cccnc1Oc1cccc(C(F)(F)F)c1,1%,-0.9%,-4%,-4
O=C(Cc1ccccc1)N1CCN(CCCc2ccccc2)CC1,7%,-0.7%,4%,nt
Fc1ccc(C2N3CCCN23)cc1 (configuration not stated),1%,2.3%,-2%,4
O=[N+]([O-])c1c2ccccc2cc2ccccc12,2%,-1.1%,nt,nt
NCc1cc(=O)[nH]o1,-14%,-3.8%,nt,1&-6
COC(=O)C1=C(C)OC(N)=C(C#N)C12C(=O)Nc1ccccc12 (configuration not stated),-5%,3.3%,0%,-12

# An excerpt from above, reduced to Rango release inh and miR-21 reporter.
SMILES	Rango release inh	miR-21 reporter
COc1ccc(C(Nc2cccc([N+](=O)[O-])c2)P(=O)(OC(C)C)OC(C)C)cc1 (configuration not stated)	-2%	14%
CC(C)N(CC#CCC1(O)c2ccccc2-c2ccccc21)C(C)C	-10%	-2%

# Some of the entries so far, with each value named:
CC(=O)Nc1cc(C(=O)N2CCC3(CC2)OCCO3)ccc1Sc1ccc(C)cc1
  Rango release inh: 29% | Rango complex inh: -6.1% | miR-21 reporter: -4% | GLA inh pH 4.5: 6

Cc1ccc(-c2c(C(=O)O)c(C(=O)O)c3n2CSC3)cc1
  Rango release inh: 2% | Rango complex inh: ? | miR-21 reporter: 0% | GLA inh pH 4.5: nt

# (next part)
Compound,Rango release inh,Rango complex inh,miR-21 reporter,GLA inh pH 4.5
COC(=O)C1=C(c2ccc(S(C)(=O)=O)cc2)C[C@@H]2CC[C@H]1N2C(=O)NCCO,-9%,-2.6%,nt,nt
O=Cc1cn(Cc2cccc(F)c2)c2ccccc12,1%,-0.6%,10%,-3
Cc1ccc(-c2nc(N(C)C3CCN(C)CC3)c3ccccc3n2)cc1,0%,-0.3%,8%,-6
CCCCn1c(O)c(C(CC)=NCCc2ccccc2)c(=O)[nH]c1=O,2%,0.3%,0%,-9
O=C1/C(=C/c2ccncc2)N2CCC1CC2,11%,-0.4%,0%,-7
CC(=O)OC1CC[C@@]2(C)C(=CC(=O)C3C4CCC(OC(C)=O)[C@@]4(C)CCC32)C1 (some centres not stated),-23%,?,nt,nt
O=[P+](Cc1ccccc1)Cc1ccccc1,-2%,2.1%,-4%,0
O=C(C1CCN(S(=O)(=O)N2CCOCC2)CC1)N1CCC2(CC1)OCCO2,16%,1.3%,0%,8
CCN1C[C@]2(CO)CC[C@H](OC)[C@@]34C2[C@H](OC)[C@@](O)(C13)[C@@]1(O)C[C@H](OC)[C@H]2C[C@@H]4[C@@H]1[C@H]2OC,4%,-2.4%,-2%,nt
Cc1ccc(-n2c(O)c(C=NC3CCCC3)c(=O)[nH]c2=O)c(C)c1,-6%,-2.0%,-1%,-2
N[C@@H](Cc1c[nH]c2ccccc12)c1nnc(SCc2c(F)cccc2Cl)o1,-10%,1.0%,-14%,-3
CC(CCc1ccccc1)NCCC#N (configuration not stated),-13%,-0.5%,1%,-1
COc1ccccc1N1CCN(Cc2cc(C)c(C)cc2O)CC1,9%,-7.3%,14%,-3
Cc1c(C)c2ccc(OCC(=O)N3CCC(C(=O)O)(c4ccccc4)CC3)cc2oc1=O,5%,-2.6%,5%,nt
CC(C)OC(=O)Cc1ccccc1,13%,0.2%,nt,nt
Oc1cc2c(cc1CN1CCN(c3ccccc3)CC1)OCO2,-1%,?,4%,nt
CC1CN(c2cc([N+](=O)[O-])ccc2Cl)CC(C)N1 (configuration not stated),-7%,0.0%,-3%,0
Cn1cc(C(=O)N2CCC3(CC2)OCCO3)c2c3ccccc3n(C)c2c1=O,13%,-5.4%,-7%,3
CCCCOc1nc2ccccc2c(=O)n1-c1ccccc1,-11%,-4.4%,-1%,-1
C[n+]1ccc(-c2ccncc2)cc1,-4%,-0.1%,0%,4

# Two entries drawn at random from the list so far:
Compound,Rango release inh,Rango complex inh,miR-21 reporter,GLA inh pH 4.5
O=C(Nc1ccc(F)cc1F)c1cccnc1Oc1cccc(C(F)(F)F)c1,1%,-0.9%,-4%,-4
CC(C)N(CC#CCC1(O)c2ccccc2-c2ccccc21)C(C)C,-10%,-0.8%,-2%,0

# More compounds
Compound,Rango release inh,Rango complex inh,miR-21 reporter,GLA inh pH 4.5
O=C1CSC2N1CCNC21CCCCC1 (configuration not stated),-1%,-3.4%,3%,nt
C=C(C)CC1(CC)C(=O)NC(=S)NC1=O,18%,0.9%,nt,nt
O=C(COc1ccc2ccccc2c1)N1CCN(CC2CC3C=CC2C3)CC1 (configuration not stated),-7%,3.2%,-1%,-3
COc1ccccc1-n1c(O)c(C=NCCCn2ccnc2)c(=O)[nH]c1=O,39%,0.7%,4%,5
COc1cccc(-n2c(O)c(C=NCCN3CCOCC3)c(=O)[nH]c2=O)c1,-3%,-0.2%,4%,-1
COc1cccc(N2C(=O)CC(=O)NC2=O)c1,-1%,-4.0%,-4%,5
COc1cc(CN2CC=C(c3ccc(F)cc3)CC2)cc(OC)c1,10%,0.0%,0%,nt
CN1CCN(Cc2ccc(N)cc2)CC1,10%,0.8%,2%,0
CC(=O)NC(Cc1ccc(N(CCCl)CCCl)cc1)C(=O)NCC(=O)NCC(=O)O (configuration not stated),-9%,-2.8%,-4%,4
CCCC(=O)NC(Oc1ccc(C(C)=O)cc1)C(Cl)(Cl)Cl (configuration not stated),-12%,3.3%,-2%,4
COc1cc([N+](=O)[O-])c2nc(C)ccc2c1[N+](=O)[O-],12%,-1.1%,nt,nt
CN1C(=O)/C(=C/c2ccc(Cl)s2)C(=O)NC1=S,-23%,-1.3%,-7%,nt
CCOC(=O)[C@]1(C#N)[C@@H]2C=CC(C(C)=O)=CN2[C@@H](C(N)=O)[C@@H]1c1ccsc1,?,?,1%,-4
Cc1ccc2c(c1)CC1(CN2C)C(=O)NC(=O)N(C(C)C)C1=O (configuration not stated),-11%,0.4%,-7%,-4
CC(Cc1ccccc1Sc1ccccc1)N(C)C (configuration not stated),11%,0.0%,1%,0
OC(CCCN1CCC(O)(c2ccc(Cl)cc2)CC1)c1ccc(F)cc1 (configuration not stated),?,0.3%,-7%,-2
Cn1c(=O)n(CC(=O)N2CCC3(CC2)OCCO3)c(=O)c2ccccc21,-9%,-3.3%,-15%,3
O=C1NC(=O)N(Cc2ccccc2)C(=O)/C1=C/C=C/c1ccco1,-25%,?,12%,7
O=C(CNC(=O)c1cccs1)NCC(=O)OCC(=O)c1ccc([N+](=O)[O-])cc1,-12%,?,-1%,4
Cc1ccc(-c2nc3ccccc3c(=O)n2-c2cccnc2)cc1,3%,0.3%,0%,2
COc1cccc(N=Cc2c(O)n(Cc3ccco3)c(=O)[nH]c2=O)c1,0%,?,-1%,-3
NCCCN1CCN(c2ccccc2)CC1,13%,-2.8%,-6%,1
COc1ccccc1N1CCN(C(CNC(=O)Oc2ccccc2)c2cccnc2)CC1 (configuration not stated),11%,-1.2%,1%,-5
CCOc1ccc(N)cc1,9%,1.3%,nt,nt
O=C(Cc1ccccc1)N1CCN(Cc2ccc(Cl)cc2)CC1,7%,6.7%,nt,nt
Cc1ccc(C)c(NC(=O)CCNC(=O)N2C[C@H]3C[C@@H](C2)c2cccc(=O)n2C3)c1,3%,-0.8%,0%,nt
CCOc1ccc(C(=O)OC2CC3CCC(C2)N3C)cc1 (configuration not stated),0%,1.1%,-14%,2
C=C1C(=O)[C@@]23C[C@H]4[C@@H]5[C@@]6(C)CCC[C@@]57[C@@H]2[C@@H](O)[C@@H]1C[C@H]3[C@H]7N4C6,-8%,-2.1%,nt,nt

# Some values from above.
# COc1cccc(N=Cc2c(O)n(Cc3ccco3)c(=O)[nH]c2=O)c1 in Rango release inh shows 0%
# COc1ccccc1N1CCN(C(CNC(=O)Oc2ccccc2)c2cccnc2)CC1 (configuration not stated) in Rango release inh shows 11%

# Some of the compounds tested. The share of hits here may be higher or lower than overall.
